# High-throughput results from PubChem.
# miR-21 FLuc: raises the signal of a miR-21 reporter | HeLa miR-21 FLuc reporter, luciferase, 48 h | Potency, µM (titrated, usually from 38.3 µM), without a hit: top-dose reporter change, positive = more light | 340,000 tested, under 10 active | AID 2288; active = well fitted rising curve with a large enough effect; inconclusive = small, poorly fitted or top-dose-only effect; inactive = no such curve, though single readings can be large or run the other way;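 also: % of control where 0% means no effect; miR-21 action dims this reporter so a rising signal means less miR-21 action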
#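 HeLa miR-21-FLuc reporter line, endogenous miR-21; 2000 cells/well in DMEM/10% FBS; compound titration up to ~40uM final, 48 h, 37 degree Celsius; luciferase detection reagent, 15 min lysis, CCD luminescence.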
# Starred values were filed as active, the others as inactive; ? = inconclusive; [ ] = dose if it differs, or a comment.
structure | miR-21 FLuc
Cc1ccccc1OCC(=O)Nc1ccc2[nH]c(=O)sc2c1 | 1%
O=c1[nH]c(=O)n(C2CCCCC2)c(O)c1C1=Nc2ccccc2SC(c2ccccc2)C1 (stereo not drawn) | 1%
Cc1ccc(NC(=O)c2c(NC(=O)Cc3ccccc3)sc3c2CCC3)cc1 | -3%
COc1ccc(C2C(=O)N(C3CCCCCC3)CC(=O)N2CCC2=CCCCC2)cc1 (stereo not drawn) | 11%
COc1ccc(NC(=O)CSc2oc(-c3ccc(F)cc3)nc2S(=O)(=O)c2ccc(C)cc2)c(OC)c1 | -2%
CCC(C(=O)Nc1cc(C(F)(F)F)ccc1Cl)n1nc(C)c2sc3ccccc3c2c1=O (stereo not drawn) | -18%
COc1cc2c(cc1OC)C(COc1ccc(C(C)C)cc1)N(C(=O)COc1ccccc1)CC2 (stereo not drawn) | 28%
CC1CCN(S(=O)(=O)c2cccc(C(=O)NC3CCS(=O)(=O)C3)c2)CC1 (stereo not drawn) | -9%
CCOc1ccc(NC(=O)C(C)n2c(=O)cc(C)c3c(C)nn(-c4ccccc4)c32)cc1 (stereo not drawn) | 0%
Cc1ccc(C)c(NC(=O)Cn2cc(S(=O)(=O)Cc3cccc(Cl)c3)c3ccccc32)c1 | -12%
CC(=O)OCCCN1C(=O)c2cccc3cc(Br)cc(c23)C1=O | -4%
CCSc1nc(-c2ccccc2)nc2c1Cc1c(CO)cnc(C)c1O2 | 2%
COc1ccc(-c2noc(CSc3nnc(C)n3-c3ccc(C)cc3)n2)cc1 | 7%
CCN(C(=O)c1noc2c1COc1ccc(C)cc1-2)c1cccc(C)c1 | -1%
COc1ccc(N2CCN(CCCNC(=O)C3COc4ccc(OC)cc4C3)CC2)cc1 (stereo not drawn) | 0%

# The list continues:
structure | miR-21 FLuc
COc1ccccc1NC(=O)c1cc(S(=O)(=O)NCCC2=CCCCC2)ccc1F | 5%
COc1cccc(-n2c(=O)c3c(C)c(C)sc3n(CC(=O)NCc3ccc(C)cc3)c2=O)c1 | 0%
COC(=O)c1cc2sc(C)cc2n1Cc1ccc(Br)cc1F | -5%
COCCCNC(=O)C1CCN(Cc2cc3ccccc3n2Cc2ccccc2C)CC1 | 17%
Cc1ccccc1C(=O)NC1(C(F)(F)F)N=C(c2ccccc2)N(Cc2ccccc2)C1=O (stereo not drawn) | 2%
Cc1cccc(C(=O)N2CCc3cc(CNS(=O)(=O)c4cccs4)ccc32)c1 | 12%
Cc1ccccc1NC(=O)c1sc2nc(-c3ccncc3)ccc2c1N | 27%
Cc1ccc(NC(=O)c2c(C)oc3ccc(O)c(CN4CCOCC4)c23)cc1 | -3%
CCOc1ccc(NC(=O)c2sc3nc(-c4ccc(OC)cc4)cn3c2C)cc1 | -1%
CCC1CN(C(=O)Nc2cc(C)ccc2OC)c2cc(Cl)ccc2O1 (stereo not drawn) | -2%
COC(=O)c1ccc(NC(=O)C2(S(=O)(=O)c3ccc(C)cc3)CC2)cc1 | -15%
COc1ccc(-c2nnn3c2nc(NCc2ccc(C)cc2)c2ccccc23)cc1 | 1%
COc1ccc(CNC(=O)Cc2ccc(NC(=O)N3CCCCc4ccccc43)cc2)cc1 | 9%
CCc1ccc(S(=O)(=O)c2nnn3c2nc(N(C)Cc2ccccc2)c2cc(Cl)ccc23)cc1 | 0%
COc1cc(OC)cc(C(=O)Nc2cc(-c3nc4ccccc4s3)ccc2OC)c1 | -13%

# (list continues)
structure | miR-21 FLuc
Cc1cc(NC(=O)Cn2c(=O)oc3cc(S(=O)(=O)N4CCCC4)ccc32)ccc1Br | -6%
COc1cc2oc(=O)c(CC(=O)N3CCCCC3)c(C)c2cc1OC | -1%
Cc1ccc(OCC(=O)N(Cc2sccc2C)C2CCS(=O)(=O)C2)cc1 (stereo not drawn) | -7%
Cc1nn(CC(=O)NCc2cccc(Br)c2)c(=O)c2c1sc1ccccc12 | -6%
Cc1cccc(NC(=O)CSc2nc3ccc(NC(=O)c4ccccc4)cc3s2)c1 | -1%
CC(=O)c1ccc(NC(=O)CN(C)S(=O)(=O)c2cnc[nH]2)cc1 | -2%
O=C(Nc1ccc(F)c(Cl)c1)N1CCN(C(=O)c2nsc3ccccc23)CC1 | 0%
COc1ccc(-n2c(SCC(=O)Nc3cc(C)cc(C)c3)nc3c(oc4ccccc43)c2=O)cc1 | 3%
CCOC(=O)C1CCN(c2ncnc3c2c(-c2ccccc2)cn3-c2ccc(C)c(Cl)c2)CC1 | -3%
COc1ccc(C(=O)N(Cc2ccco2)Cc2ccco2)cc1 | -3%
Cc1cc2c(cc3c(SCc4ccc(Cl)cc4)nncn32)o1 | -16%
Cc1ccc(OCC(=O)Nc2cccc(C(=O)OCc3cc(=O)n4nc(C)sc4n3)c2)cc1 | -62%
Cc1ccc(C(=O)NCc2nnnn2-c2ccc(C)c(C)c2)cc1 | -4%
Cc1oc(-c2ccccc2)nc1CNC(=O)Nc1ccccc1 | 2%
CCOCCCn1c(SCC(=O)Nc2ccc(CC)cc2)nc2ccccc2c1=O | 21%

# Further results.
structure | miR-21 FLuc
Cc1ccc(Cl)cc1N1CCN(C(=O)COCc2cc(-c3ccc4c(c3)OCO4)on2)CC1 | 1%
O=C(Cn1ncc2c(=O)oc3ccccc3c21)Nc1cc(F)ccc1F | 4%
Cc1ccc(S(=O)(=O)c2nc(-c3cccc(Br)c3)oc2N2CCCCCC2)cc1 | 6%
Cc1c(Cl)cccc1-n1ncc(C(=O)NCCN2CCN(C)CC2)c1C1CCN(C(=O)OC(C)(C)C)CC1 | -1%
CCCN(Cc1cccs1)C(=O)Nc1ccc(F)c(Cl)c1 | 6%
COCCCNc1nc(NCc2cccc(Cl)c2)c2cnn(C)c2n1 | 11%
CCc1nn(CC(=O)Nc2ccc(NC(C)=O)cc2)c(=O)c2cc3sccc3n12 | -8%
O=C(Nc1cc(F)ccc1F)C1CCN(c2nc3ccccc3n3cccc23)CC1 | ?
Cc1ccc(Cl)cc1-n1ncc2c(N3CCC(C)CC3)ncnc21 | 14%
Cc1oc(-c2ccccc2Cl)nc1CSc1nc2ncccc2[nH]1 | -14%
CCOc1ccc(-c2cc(C)n3nc(C(=O)Nc4ccc(C)c(C)c4)cc3n2)cc1 | -15%
Cc1cccc(-c2nc(S(=O)(=O)c3ccc(F)cc3)c(N3CCN(c4ccccc4)CC3)o2)c1 | -2%
Cc1ccc(-n2ncc3c(Nc4cccc(C)c4C)ncnc32)cc1 | -69%
COc1ccc(OC)c(S(=O)(=O)NCCc2csc3nc(-c4ccccc4)nn23)c1 | 5%
COc1ccc(NC(=O)NC2COc3ccccc3C2)cc1Cl (stereo not drawn) | -30%

# Following part.
structure | miR-21 FLuc
CCOc1ccc(CNS(=O)(=O)c2ccc(-c3coc(C)n3)cc2)cc1 | 4%
CCOc1ccc(NC(=O)c2ccc(F)c(S(=O)(=O)NCc3ccc4c(c3)OCO4)c2)cc1 | 19%
CC(C)NC(=O)C1CCN(C(=O)c2cnn(-c3ccccc3)c2-n2cccc2)CC1 | -2%
Cc1ccc(C(=O)NCCc2ccc(Cl)cc2)cc1-n1c(C)nc2cccnc21 | 9%
O=C(CSc1nc(-c2ccccc2)[nH]c1-c1ccccc1)Nc1ccc2c(c1)OCO2 | ?
COCCNC(=O)CSc1nc2cc3c(cc2c(=O)n1CCCC(=O)NCc1ccc2c(c1)OCO2)OCO3 | -7%
O=C(Nc1cc2ccc(O)cc2oc1=O)c1ccccc1 | -34%
CCOc1ccc(-c2cc(CCCC(=O)NCCc3ccc(SC)cc3)no2)cc1 | ?
CCS(=O)(=O)N1CC(=O)N(c2cccc(C)c2C)C(C)(C(=O)NC2CCCCC2)C1 (stereo not drawn) | -14%
COc1ccc(CNC(=O)CS(=O)(=O)c2cccc3nsnc23)cc1 | -1%
CCn1c(=O)n(-c2ccc(F)c(Cl)c2)c(=O)c2sc3ccccc3c21 | -1%
Clc1cccc(-c2noc3ncnc(NC4CCCCC4)c23)c1 | -15%
CCOC(=O)c1c(C)[nH]c(CCC(=O)NCc2ccc(F)cc2)c1C | -2%
Cc1ccccc1NC(=O)CCC(=O)N1CCSc2ccccc21 | 1%
O=C(OCc1ccco1)c1ccc2c(c1)N(Cc1cccc(F)c1)C(=O)c1ccccc1S2 | -4%

# (listing goes on)
structure | miR-21 FLuc
Cc1cc2c(cc1S(=O)(=O)N(C)CC(=O)Nc1cccc(C#N)c1)OCC(=O)N2 | -1%
CN(C)C1(CNC(=O)COc2ccc([N+](=O)[O-])cc2)CCCCC1 | -3%
O=C(NCc1ccccc1)c1ccc(Cn2c(=O)c3cccn3c3cccnc32)cc1 | -10%
Cc1ccc(C)c(N2CCN(C(=O)Cn3ncc4c(=O)oc5ccccc5c43)CC2)c1 | -1%
O=C(NC1CC(=O)N(c2cccc(F)c2)C1)c1cc2ccccc2o1 (stereo not drawn) | -1%
COc1ccc2c3c(c(=O)oc2c1)C1O[C@](c2ccsc2)(Cc2ccccc21)O3 | -8%[7.66 µM]
O=C(CSc1ncc(CO)n1Cc1ccc(Cl)cc1)NCc1ccc(F)cc1 | 1%
CCOc1ccc(CCNC(=O)c2cn(C)c3ccc(S(=O)(=O)N4CCCCC4)cc3c2=O)cc1OCC | -10%
COC(=O)C1CCN(CC(=O)Nc2cc(C)c3c(=O)oc4ccccc4c3n2)CC1 | 4%
Cc1oc2ncn(C)c(=O)c2c1C(=O)N1CCN(c2ccccc2F)CC1 | -2%
O=C(NCc1ccccc1F)c1sc2ncccc2c1-n1cccc1 | 1%
CCC1CCCCN1Cc1cn2c(-c3ccc(Br)cc3)nnc2s1 (stereo not drawn) | 1%
Cc1ccc(-c2cc(C(F)(F)F)n3nc(-c4cccc(Br)c4)cc3n2)cc1 | 1%
Cc1ccc(Cl)cc1NC(=O)Cn1c(=O)n(C(C)C)c(=O)c2oc3ccccc3c21 | 3%
CCC(C)NC(=O)c1sc2nc(C)c(C(=O)Nc3ccc(C)cc3C)c(-c3ccccc3Cl)c2c1N (stereo not drawn) | 11%

# Later entries.
structure | miR-21 FLuc
CC1CCC(N2CC(=O)N(C3CCCC3)C(c3ccc(Cl)cc3)C2=O)CC1 (stereo not drawn) | -9%
CC(=O)N1CCc2cc(S(=O)(=O)NC(C(=O)Nc3ccc(C)cc3C)C(C)C)ccc21 (stereo not drawn) | 1%
O=C(Nc1ccc2nc(SCCOc3ccccc3)sc2c1)c1ccc2c(c1)OCO2 | -10%
COc1ccccc1CNc1ncnc2c1nc1n2CCCC1 | -4%
Cc1ccc(C2CCN(C(=O)c3cnn(-c4ccc(C)c(C)c4)c3C3CCN(C(=O)OC(C)(C)C)CC3)C2)cc1 (stereo not drawn) | 0%
Cc1ccc(NC(=O)Cn2c(=O)oc3cc(S(=O)(=O)N4CCC(C)CC4)ccc32)cc1Cl | -4%
COc1ccc2oc(=O)cc(CN3CCN(C(=O)c4ccccc4Br)CC3)c2c1 | 0%
O=C(NCCc1ccccc1Cl)c1ccc2c(c1)nc1n2CCOC1 | -24%
O=C(Nc1ccccc1C(=O)OCc1cc(=O)n2c3c(sc2n1)CCCC3)c1cccc(Cl)c1 | -8%
Cc1ccc(-c2c(C(=O)NCCc3ccc(Cl)cc3)oc(=O)c3ccccc23)cc1 | 15%
Cc1nc2c(c(C)c1CCC(=O)Nc1cccc(C(F)(F)F)c1)c(=O)n(C)c(=O)n2C | 2%
CCC(CC)C(=O)Nc1ccccc1SCc1cc(=O)c2cccc(C)c2[nH]1 | 29%
CCCN(C(=O)c1cc2c(s1)-c1c(C)cccc1OC2)c1ccc(OCC)cc1 | -2%
COc1cccc(NC(=O)C2CCCN(S(=O)(=O)c3c(C)[nH]c(=O)[nH]c3=O)C2)c1 (stereo not drawn) | 4%
O=C(Cn1ncc2c([nH]c3ccccc32)c1=O)Nc1cccc(C(F)(F)F)c1 | 2%

# Grouped by structure: those above containing an NH in an aromatic ring.
structure | miR-21 FLuc
Cc1ccccc1OCC(=O)Nc1ccc2[nH]c(=O)sc2c1 | 1%
O=c1[nH]c(=O)n(C2CCCCC2)c(O)c1C1=Nc2ccccc2SC(c2ccccc2)C1 (stereo not drawn) | 1%
CC(=O)c1ccc(NC(=O)CN(C)S(=O)(=O)c2cnc[nH]2)cc1 | -2%
Cc1oc(-c2ccccc2Cl)nc1CSc1nc2ncccc2[nH]1 | -14%
O=C(CSc1nc(-c2ccccc2)[nH]c1-c1ccccc1)Nc1ccc2c(c1)OCO2 | ?
CCOC(=O)c1c(C)[nH]c(CCC(=O)NCc2ccc(F)cc2)c1C | -2%
CCC(CC)C(=O)Nc1ccccc1SCc1cc(=O)c2cccc(C)c2[nH]1 | 29%
COc1cccc(NC(=O)C2CCCN(S(=O)(=O)c3c(C)[nH]c(=O)[nH]c3=O)C2)c1 (stereo not drawn) | 4%
O=C(Cn1ncc2c([nH]c3ccccc32)c1=O)Nc1cccc(C(F)(F)F)c1 | 2%

# (more compounds)
structure | miR-21 FLuc
Cc1ccc(CSC2=Nc3ccccc3C3=NC(CCC(=O)NCCc4ccccc4)C(=O)N23)cc1 (stereo not drawn) | 4%
COc1ccc(N2CCN(C(=O)CSc3nc4ccccc4nc3Cc3ccc(Cl)cc3)CC2)cc1 | 3%
COc1cccc(C(=O)NCC2OCCc3ccccc32)c1 (stereo not drawn) | -39%
CCN1CCN(CCCNC(=O)c2ccc3nc(Cc4ccccc4)oc3c2)CC1 | 3%
Cc1cc(C)cc(N2CC(c3nc(-c4ccccc4C)no3)CC2=O)c1 (stereo not drawn) | 5%
O=C(CCCn1c(=O)c2sccc2n(Cc2c(F)cccc2Cl)c1=O)NCc1ccccc1 | -5%
Cc1cccc(N2CCN(S(=O)(=O)c3c(C(=O)N4CCC(C)CC4)c(C)n(C)c3C)CC2)c1C | 14%
O=C(Nc1nc2n(n1)C(c1ccccc1)C=C(c1ccccc1)N2)c1ccc(Cl)c([N+](=O)[O-])c1 (stereo not drawn) | -6%

# This is a subset (hit frequency here may not be typical).
